Screens deposited in PubChem by ICCB-Longwood Screening Facility, Harvard Medical School.
Ecoli growth – blocks Escherichia coli growth. OD600 absorbance (test concentration not listed). actives 0.21% (n = 330,000). OD600, 23 h; stronger effect = lower value;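 active = OD600 absorbance below the run mean of sample wells minus 3.6 SD, in any replicate, cut at about 0.56 in these data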;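 note: stock transfer was 300 nL into about 60 µL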
The depositor's hits bear a star; & = joins results of further samples. Some of the compounds tested. The share of hits here may be higher or lower than overall.

Ecoli growth | molecule
0.61 | Cc1ccc(-c2cc(C(=O)NN=Cc3ccc(F)cc3)n[nH]2)o1
0.7 | O=C(NN=Cc1ccc(OCc2ccccc2)cc1)c1cccs1
0.72 | COc1ccc(C2=CSC(N=Cc3ccc(F)cc3)=NN2)cc1
0.67 | ON=C1CCSc2ccccc21
0.7 | CC(=O)Nc1c(I)c(C(=O)NC2C(O)OC(CO)C(O)C2O)c(I)c(N(C)C(C)=O)c1I (stereo unspecified)
0.72 | CN(C)CCCNCCCCNC(=O)C=NO
0.72 | CN(N=Cc1cc([N+](=O)[O-])ccc1O)c1ccccc1
0.68 | CCC(C)C(C(=O)N1CCNCC1)n1cc(C(N)CC(C)C)nn1 (stereo unspecified)
0.65 | O=C(C=Cc1ccc(O)c(O)c1)OCCc1ccccc1
0.7 | Cc1noc(C)c1NC(=O)N(C)CC1Oc2ccc(NC(=O)NC(C)C)cc2C(=O)N(C(C)CO)CC1C (stereo unspecified)
0.69 | O=C1OCCN1C(=O)C1C(c2ccc(Cl)cc2)C(c2cccc(Cl)c2)=NN1c1ccccc1 (stereo unspecified)
0.67 | COc1cccc(-c2c(C(=O)NN=C(C)c3cccnc3)nnn2-c2nonc2N)c1
0.65 | COCC=CC1=CC2=CC(=O)C(C)(OC(=O)c3cnc4ccccc4n3)C(=O)C2=CN1c1ccccc1 (stereo unspecified)
0.65 | CCC(C)C1CNCCN1CCCc1cc(OC)c(OC)c(OC)c1 (stereo unspecified)
0.68 | O=S(=O)(N=S1CC=CCN1S(=O)(=O)c1ccccc1)c1ccccc1 (stereo unspecified)
0.77 | O=C(NN=Cc1c[nH]c2ccc(Br)cc12)c1ccn(Cc2ccc(Cl)cc2Cl)n1
0.62 | COc1ccc(C=NNc2nc3ccccc3c(=O)[nH]2)cc1
0.67 | O=C(NN=Cc1coc2ccccc2c1=O)c1ccncc1
0.67 | Cn1c(SCC=Cc2ccccc2)nnc1-c1ccco1
0.69 | CC(=NNC(=O)c1cc(-c2cccs2)nc2ccccc12)c1ccccn1
0.68 | O=C(NN=Cc1ccc(COc2ccc(Br)cc2)o1)c1ccco1
0.7 | OCC1OC(n2cnc3c(Nc4ccccc4)ncnc32)C(O)C1O (stereo unspecified)
0.7 | O=C(OCCN1C(=O)c2cccc3c(N4CCOCC4)ccc(c23)C1=O)c1cccc(Cl)c1
0.74 | CC(C)(C)c1ccc(OCc2ccc(C(=O)NN=Cc3ccc(O)c(O)c3)cc2)cc1
0.71 | CCOc1ccc(S(=O)(=O)NN=C(C)c2ccc(Cl)c(Cl)c2Cl)cc1
0.65 | COc1cccc2c1C1CN(CCCCn3c(=O)[nH]c4c(sc5ncc(-c6ccccc6)nc54)c3=O)CC1CO2 (stereo unspecified)
0.63 | CCc1ccc(C=NNC(=O)c2ccccn2)cc1
0.69 | COC(=O)NN=C(C)c1ccc(C)c([N+](=O)[O-])c1
0.68 | Cc1cc(C)n2nc(C(=O)NN=Cc3ccc(O)cc3)nc2n1
0.7 | O=C(O)COc1ccccc1C=NNC(=O)c1ccc(F)cc1
0.65 | Cc1ccc2c(c1)COc1c3ccc(C(=O)NC(C)CO)cc3nn1-2 (stereo unspecified)
0.82 | O=C(NCCCNC1CCCCC1)c1ccc(C=NO)nc1
0.71 | CC(=NNC(=O)c1ccccc1)c1cc2cc([N+](=O)[O-])ccc2oc1=O
0.68 | COc1ccc(OC)c(NC(=O)C(=O)C=C(O)c2cc(OC)ccc2OC)c1
0.78 | COc1cc(C=NNC(=O)C(C)n2nnc3ccccc32)ccc1O (stereo unspecified)
0.69 | CCOc1ccc(C=NNC(=O)c2nnn(-c3nonc3N)c2COc2ccc(F)cc2)cc1
0.71 | COc1ccc(C=NNC(=O)c2cccnc2)cc1Cn1nc([N+](=O)[O-])c(Br)c1C
0.69&0.7 | CCN1C(=O)C2C(c3ccc(-c4ccc(C(C)=O)cc4)cc3)N3CCC[C@@]3(C(=O)OC)C2C1=O (stereo partly specified)
0.7 | CC(=NNC(=O)c1nnn(-c2nonc2N)c1CN(C)c1ccccc1)c1cccs1
0.67 | CCN1C(=NCC2CC2)NC(c2ccccc2)C(C(=O)OC)=C1C (stereo unspecified)
0.69 | CC(=NNC(=O)CN1CCN(S(=O)(=O)c2ccc(Br)cc2)CC1)c1cccnc1
0.73 | Cc1ccc(-c2c(C(=O)NN=Cc3c[nH]c4ccccc34)nnn2-c2nonc2N)cc1
0.7 | COc1ccc(C=NNC(=O)c2ccoc2C)cc1OC
0.83 | COc1ccc(-c2oc(N=CN3CCCC3)c(C#N)c2-c2ccc(OC)cc2)cc1
0.68 | CCOc1ccc(C=NOCC(=O)NC(c2ccccc2)c2ccccc2)cc1
0.7 | COc1cc(C=NNc2ccc(S(N)(=O)=O)cc2[N+](=O)[O-])cc(OC)c1O
0.7 | Nc1nonc1-n1nnc(C(=O)NN=Cc2c(F)cccc2Cl)c1-c1ccc2c(c1)OCO2
0.66 | CC(C)CC(NC(=O)c1nc[nH]c1C(=O)NCc1ccccc1)C(=O)OC(C)(C)C (stereo unspecified)
0.72 | CCC(=NNC(=O)CSCc1ccccc1Br)c1ccc2c(c1)OCCO2
0.66 | CN1CC(=O)N2C(Cc3c([nH]c4ccccc34)C2c2ccc3c(c2)OCO3)C1=O (stereo unspecified)

(continued)
Ecoli growth | molecule
0.7 | O=C1C2C(C3CC3)N3C(=O)CN(CC4CC4)C(=O)[C@@]3(Cc3ccccc3)C2C(=O)N1c1ccccc1 (stereo partly specified)
0.7 | Cc1nc2ccc(C(=O)NN=Cc3ccc(O)cc3)cc2[nH]1
0.68 | COc1ccccc1C=NNC(=O)c1ccc(Cn2nc([N+](=O)[O-])cc2C)cc1
0.71 | COc1c(Cl)cc(Cl)cc1C=Nn1cnnc1
0.66 | COCCNC(=O)C(=O)NN=Cc1ccc(C(=O)OC)cc1
0.75 | COc1ccc(NCC(=O)NN=CC2CCCCC2)cc1
0.64 | COc1ccc(-c2nnc(SCC(=O)NN=Cc3ccccc3C(=O)O)n2-c2ccccc2)cc1
0.66 | O=C(C[n+]1ccccc1)NN=Cc1ccc(C(=O)O)cc1
0.71 | COCc1cc(=O)[nH]c(N=C(N)Nc2cccc(C)c2)n1
0.67 | Cc1cccc(C(N)=NOC(=O)Cc2ccccc2)c1
0.65 | CC[C@]12C(=O)N(C)CC(C3C(=O)N(C)C(=O)C31)N2C(=O)c1ccc(C(F)(F)F)cc1 (stereo partly specified)
0.78 | COc1ccc(NS(=O)(=O)c2cc([N+](=O)[O-])ccc2NN=Cc2c(C)[nH]c3ccccc23)cc1
0.73 | CCOc1ccc(C=NN(C)c2ccccc2)cc1OC
0.72 | O=C(CN(c1ccc(Cl)c(C(F)(F)F)c1)S(=O)(=O)c1ccccc1)NN=Cc1cccc2c1OCCO2
0.68 | OCC1OC(OCC2OC(O)C(O)C(O)C2O)C(O)C(O)C1O (stereo unspecified)
0.69 | Cc1nnsc1C(=O)NN=Cc1cccc(C(F)(F)F)c1
0.7 | CC(=NNc1ccc(C(=O)c2c(C)cc3ccccn23)cc1[N+](=O)[O-])c1ccc(O)cc1
0.65 | CC(=NNC(=S)NC1CCCCC1)c1ccc(C#N)cc1
0.7 | O=C(NN=Cc1cccs1)c1cccc2cc[nH]c12
0.75 | COc1cc(C=NNC(=O)CCn2c3ccccc3c3ccccc32)cc(OC)c1OC
0.66 | O=C(NN=C1CC(c2ccccc2)Oc2ccccc21)C1CC1 (stereo unspecified)
0.64 | Cc1ccc(C=NNC(=S)NC2CCCCC2)o1
0.65 | COC(=O)C1N2C(=O)C(NC(=O)COc3ccccc3)C2SC1(C)C (stereo unspecified)
0.69 | CC(C)(C)OC(=O)NCCCCC(NC(=O)c1[nH]cnc1C(=O)NC(Cc1ccccc1)C(=O)OCc1ccccc1)C(=O)OC(C)(C)C (stereo unspecified)
0.81 | Cc1ccc(N2CC(C(=O)NN=Cc3cccc([N+](=O)[O-])c3)CC2=O)cc1 (stereo unspecified)
0.71 | Cn1cnnc1SCC(=O)NN=Cc1ccc(OCC(N)=O)cc1
0.69 | Nc1nonc1-n1nnc(C(=O)NN=Cc2cccc(Cl)c2)c1CSc1ccccc1
0.67 | COc1ccc(OC)c(C=NNc2nncn2N=Cc2cc(OC)ccc2OC)c1
0.68 | COc1ccc(C(=O)NN=Cc2ccc(OC)c(COc3ccccc3)c2)cc1
0.7 | COC(=O)C1=C(N)n2c(sc(=Cc3cccnc3)c2=O)=C(C(=O)OC)C1c1cccnc1 (stereo unspecified)
0.64 | CC(=NN=C(N)SC1CC(=O)N(c2ccc(Cl)cc2)C1=O)c1cccs1 (stereo unspecified)
0.73 | Clc1ccccc1CON=C1CCCc2nonc21
0.69 | CN1CC2C(c3ccc(Cl)nc3)C3(c4ccccc4)CC2(C3)C1c1ccccc1 (stereo unspecified)
0.64 | CCN(CC)C(=O)c1[nH]cnc1C(=O)NC(Cc1ccccc1)C(=O)OCc1ccccc1 (stereo unspecified)
0.64 | O=C(NN=Cc1ccncc1)c1ccc2c(c1)OCO2
0.7 | COc1cc(C(=O)NN=C(C)Cn2nc([N+](=O)[O-])cc2C)ccc1O
0.71 | O=C(NN=Cc1cccc(Oc2ccccc2)c1)c1ccccc1Br
0.7 | CC1(C)OC2CO[C@@]3(COS(N)(=O)=O)OC(C)(C)OC3C2O1 (stereo partly specified)
0.68 | CC1(C)OC2CC3C4CCC5=CC(=O)C=C[C@]5(C)[C@@]4(F)C(O)C[C@]3(C)[C@]2(C(=O)CO)O1 (stereo partly specified)
0.69 | Cc1ccc(-c2c(C(=O)NN=Cc3ccc(C)o3)nnn2-c2nonc2N)cc1
0.72 | COc1ccc(NC(=O)Nc2cccc3c2OC(CN(C)S(=O)(=O)c2cccs2)C(C)CN(C(C)CO)C3=O)cc1 (stereo unspecified)
0.63 | COC(=O)NN=Cc1cc(Br)ccc1O
0.71 | COCCCNC(=S)NN=Cc1ccc(OC)c(Br)c1
0.67 | CCN1CC2C3C(=O)N(C)C(=O)C3[C@](Cc3ccccc3)(C1=O)N2C(=O)c1ccc(F)cc1 (stereo partly specified)
0.66 | Cn1c(=O)n(C)c2cc(C=NNC(=O)c3ccncc3)ccc21
0.71 | COc1ccc(C=NNc2ccccn2)c(OC)c1OC
0.68 | O=C(O)CCn1cc(C=C2SC(=S)NC2=O)c(-c2ccccc2)n1
0.44* | COc1ccc2nc(C)cc(NN=Cc3ccccc3)c2c1
0.71 | COc1ccc(CC(C)=NNC(=S)Nc2ccccc2F)cc1
0.71 | CCNc1nc(NC(C)C)nc(Oc2ccc(C=NO)cc2)n1

Next section
Ecoli growth | molecule
0.71 | COc1cccc(C=NNC(=O)c2[nH]nc3c2CCc2ccccc2-3)c1O
0.64 | Cc1ccc(-n2c(SCC(=O)NN=Cc3ccccc3C(=O)O)nnc2-c2ccccc2)cc1
0.77 | COc1ccc(C=NNS(=O)(=O)c2ccc(C)cc2)cc1COc1ccccc1[N+](=O)[O-]
0.75 | CC(=NNC(=O)CC1N=C(Cc2ccccc2)NNC1=O)c1ccc(C)cc1 (stereo unspecified)
0.73 | Cc1c(C(=O)O)cccc1-n1c(C)cc(C=NNc2ccc([N+](=O)[O-])cn2)c1C
0.72 | COc1ccccc1C=NNC(=O)c1ccccc1Cl
0.71 | Cc1cc(SCC(=O)NN=Cc2ccc(O)cc2O)nc2ccccc12
0.67 | Cn1cccc1C=NN1CCN(Cc2ccc(Cl)cc2)CC1
0.7 | O=C(NN=Cc1ccc(OCC2COCCO2)cc1)c1ccc(Br)cc1 (stereo unspecified)
0.7 | COC(=O)c1ccc(CON=C2CCCc3nonc32)cc1
0.6 | Cc1oc(N=Cc2ccccc2)c(C#N)c1C
0.7 | Cc1cccc(N2CN=c3sc(=Cc4ccccn4)c(=O)n3C2)c1
0.71 | COc1ccc(CC(C)=NNC(=O)c2cccnc2)cc1
0.68 | COc1cc(C=NN2CCOCC2)ccc1OCc1ccccc1
0.66 | CCCCCCCCN1C(CC(=O)OCC)c2cc(C(F)(F)F)ccc2S1(=O)=O (stereo unspecified)
0.65 | CC(=NNC(=O)c1nnn(-c2nonc2N)c1-c1ccc2c(c1)OCO2)c1cccs1
0.71 | COc1ccc(N2CC(C(=O)NN=Cc3ccc([N+](=O)[O-])cc3)CC2=O)cc1 (stereo unspecified)
0.7 | CC(C)NC(=O)CC(=O)NN=Cc1ccccc1F
0.72 | CC(=NNc1ccc(C(F)(F)F)cn1)c1ccncc1
0.72 | Cc1nn(-c2ccccc2)c(C)c1C=NNC(=O)c1cc(C23CC4CC(CC(C4)C2)C3)[nH]n1
0.75 | CC(=O)C(C[N+]1(C)CCCCC1)=NO
0.7 | Cc1ccc2c(c1)C1C(CO2)C(c2ccccc2)[C@]2(C)C(=O)N(Cc3ccccc3)CC(=O)N12 (stereo partly specified)
0.68 | O=C(CON=Cc1ccc(Cl)cc1Cl)NNC(=O)c1ccc(Cl)cc1Cl
0.68 | O=C(CN1CCCCC1)NN=Cc1cccc(Cl)c1
0.66 | C=CCON=CC1C(=O)CC(C)(C)CC1=O
